# From PubChem
# gsp ag – qHTS for Agonist of gsp, the Etiologic Mutation Responsible for Fibrous Dysplasia/McCune-Albright Syndrome: qHTS; gsp mutant cells, cAMP HTRF, 30 min; control for the full effect not named in the record; Potency, µM (doses to about 76.9 µM), for inactives: at the highest dose activation (cAMP increase), actives largely listed as activators; 340,000 tested, 0.13% active; AID 624287, 2012; active = well fitted activation curve with a large enough effect; inconclusive = small, poorly fitted or top-dose-only effect, or another doubt; inactive = no such curve, though single readings can be large or run the other way; cell line not stated here;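 further: phosphodiesterase inhibitor Ro 20-1724 added with compounds to block cAMP breakdown; potency means the concentration at half of the fitted maximal effect; nearly all actives have a fitted effect of over 60% in size; about a fifth of the inactives were tested at one dose only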
#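 Cells in DMEM/10% FBS with G418 were pretreated with compounds in DMSO plus […] (300 uM stock) for 30 min at 37C. cAMP was measured by HTRF (cAMP-d2 plus anti-cAMP antibody-K) after 30 min at room temperature.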
# gsp antagonist – qHTS for Antagonists of gsp, the Etiologic Mutation Responsible for Fibrous Dysplasia/McCune-Albright Syndrome: qHTS; 340,000 tested, 0.4% active; Potency, µM (doses to about 76.9 µM), without a hit: at the top dose activity change, negative = inhibition, actives largely listed as inhibitors; gsp-mutant cells, cAMP HTRF, 30 min; control for the full effect not named in the record; AID 624288, 2012; active = falling curve of any shape with a large fitted effect; inconclusive = falling curve, mostly with a smaller effect; inactive = flat or rising curve; cell line not stated here;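 further: intracellular cAMP measured with PDE inhibitor Ro 20-1724 present during compound exposure; potency means the concentration at half of the fitted maximal effect; on the % scale 0 is the no-effect control and ±100 the full control effect; nearly all actives have a fitted effect of over 65% in size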
#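 Cells, 2000/well, grown 16–24 h in DMEM 10% FBS with 0.5 mg/ml G418, then compounds plus […] (300 uM addition stock), 30 min at 37C. cAMP read by HTRF (cAMP-d2 and anti-cAMP antibody-K in lysis buffer) after 30 min RT.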
# Sfp inh – qHTS Assay for Inhibitors of Bacillus subtilis Sfp phosphopantetheinyl transferase (PPTase) | Biochemical Sfp PPTase activity, qHTS | 4'-phosphopantetheinyl transferase ffp (Bacillus subtilis), Q9F4F7 | AID 1490, 2009 | 310,000 tested, 3.5% active | Potency, µM, for inactives: max response, negative = inhibition, most hits filed as inhibitors; active means well fitted inhibition curve with a large enough effect; inconclusive means small, poorly fitted or top-dose-only effect, or another doubt; inactive means no such curve, though single readings can be large or run the other way;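 further: the enzyme is Sfp with the accession as filed and its product quenches rhodamine fluorescence; potency means the concentration at half of the fitted maximal effect; 0% = enzyme reaction without inhibitor and -100% = no enzyme wells; top concentration of the series not given in the record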
#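 Fluorescence-quenching assay: 15 nM Sfp-PPTase preincubated 15 min at room temperature with compound, then 5 uM rhodamine-CoA and 12.5 uM BHQ-2-labelled YbbR peptide added. Fluorescence (ex 525/em 598 nm) read at start and after 30 min; difference gives rate.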
# ClpP mod – qHTS Assay for Activators of ClpP | purified B. subtilis ClpP, FRET peptide cleavage, 20 min | AID 651965, 2013 | 340,000 tested, 1.9% active | Potency, µM (highest dose often 57.5 µM), for inactives: top-dose activity change, negative = active | ATP-dependent Clp protease proteolytic subunit (Bacillus subtilis (strain 168)), P80244; active = well fitted falling curve with a large enough effect; inconclusive = small, poorly fitted or top-dose-only effect; inactive = no such curve, though single readings can be large or run the other way; further: potency means the concentration at half of the fitted maximal effect; the source files actives as falling curves though it sought activators and does not explain the sign; nearly all actives have a fitted effect of over 65% in size; many hits overshoot -100%
# Target sequence (P80244 whole entry, looked up): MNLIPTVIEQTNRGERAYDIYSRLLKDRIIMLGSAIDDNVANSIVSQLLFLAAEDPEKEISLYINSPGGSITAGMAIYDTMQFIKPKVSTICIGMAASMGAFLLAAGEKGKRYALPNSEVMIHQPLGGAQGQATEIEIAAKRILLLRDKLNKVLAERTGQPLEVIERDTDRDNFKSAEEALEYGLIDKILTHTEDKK
#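 Purified B. subtilis ClpP, 10 microg/mL final in Tris/HCl pH8 with KCl, BSA, glycerol and Tween-20, cleaved an Abz/nitrotyrosine-quenched decapeptide. Fluorescence (ex 320, em 430) was read at 0 and 20 min at room temperature. Delta was normalized to 5.8 microM ADEP and DMSO/no-enzyme controls.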
# Menin MLL FP FL – qHTS Assay for Inhibitors Targeting the Menin-MLL Interaction in MLL Related Leukemias: Competition With Fluorescein Labeled MLL-derived Peptide. FP activity change, % at 61.4 µM. 290,000 tested, under 10 active. Fluorescence polarization, fluorescein-MLL peptide displacement from menin; inconclusive = falling polarisation curve, or a change in total fluorescence; inactive = total fluorescence flat and polarisation flat or rising; no compound was filed as active; the % refers to the polarisation; negative = inhibition;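 further: % of control where 0% means no effect; inhibitors lower the polarisation; unlabelled MLL peptide was the positive control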
# PINK1 modulator – A Quantitative High throughput Screen to Identify Chemical Modulators of PINK1 Expression | PINK1 immunofluorescence, high-content cytometry, 24 h | Potency, µM (series often up to 76.6 µM), for the others: top-dose activation (PINK1 increase), most hits filed as activators | 410,000 tested, 0.2% active; active = well fitted activation curve with a large enough effect; inconclusive = small, poorly fitted or top-dose-only effect; inactive = flat fitted curve, though single readings scatter; cell line not stated here;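 further: potency means the concentration at half of the fitted maximal effect; % of control where 0% means no effect; nearly all actives have a fitted effect of over 65% in size; a mitochondrial uncoupler was the plate control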
#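 Stable cell line treated 24 h with compounds at 5 concentrations (CCCP controls), then fixed and immunostained for PINK1 plus nuclear and cell stains; PINK1 immunofluorescence quantified by laser-scanning microplate cytometry.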
# D2 agonist – Beta-Arrestin HTS for Positive Allosteric Modulators of the Human D2 Dopamine Receptor: Agonists; D(2) dopamine receptor (Homo sapiens), P14416; DiscoveRx PathHunter D2 beta-arrestin, luminescence, 90 min; 100% = 57 uM dopamine signal; 360,000 tested, 0.084% active; activation, % (no concentration beside the values); in the data active = activation above about 40%; inconclusive = about 15% to 40%; inactive = below about 15%; further: compound concentration not given in the record; the text of the record calls up to 30% inactive
# Target sequence (P14416 whole entry, looked up): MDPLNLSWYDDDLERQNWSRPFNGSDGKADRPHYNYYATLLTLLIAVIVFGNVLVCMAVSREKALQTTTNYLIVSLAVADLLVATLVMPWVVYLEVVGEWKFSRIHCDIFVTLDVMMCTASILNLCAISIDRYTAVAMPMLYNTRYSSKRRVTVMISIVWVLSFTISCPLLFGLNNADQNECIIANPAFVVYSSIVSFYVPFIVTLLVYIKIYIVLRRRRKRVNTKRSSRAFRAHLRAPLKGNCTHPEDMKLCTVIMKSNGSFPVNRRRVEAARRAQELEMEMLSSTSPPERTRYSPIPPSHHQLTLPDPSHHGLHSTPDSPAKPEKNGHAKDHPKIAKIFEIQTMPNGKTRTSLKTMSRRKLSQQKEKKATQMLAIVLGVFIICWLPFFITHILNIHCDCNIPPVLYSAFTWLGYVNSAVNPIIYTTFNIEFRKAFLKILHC
#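 DiscoveRx PathHunter D2 beta-arrestin cells (2,100/well) attached overnight, then compound-stimulated 90 min at 37 C in HBSS/10 mM HEPES/0.1% Tween-20 buffer; beta-galactosidase complementation read by luminescence after 1 h at ambient temperature. Dopamine 57 uM final (EC100) as control.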
# * hit, by the source's call; ? = inconclusive; . = not tested or not shown; & = joins results of further samples; [ ] = remark or other dose.
No.	SMILES	ClpP mod	gsp antagonist	Sfp inh	Menin MLL FP FL	PINK1 modulator	D2 agonist	gsp ag
1	CC(C)(C)c1ccc(C(=O)Oc2ccc3c(c2)OCC3=O)cc1	-0.6%	-1%	-1%	-0.8	5.9%	-5.0	-3%
2	COc1ccc(-n2cnnc2SCC(=O)Nc2cccc(S(=O)(=O)N3CCCCC3)c2)cc1	-1.1%	-2%	0%	-1.3	0.8%	-4.1	-7%
3	COc1ccccc1Cc1c(-c2ccc(OC)c(OC)c2)nc2ccc(Cl)cn12	5.5%	.	.	.	?	-4.7	.
4	CCCS(=O)(=O)N1CCC(C(=O)N2CCN(Cc3ccccc3)CC2)CC1	-0.7%	16%	10%	0.3	0.5%	-2.5	13%
5	COc1ccc(OC)c(-n2c(-c3ccn[nH]3)n[nH]c2=S)c1	.	8%	-6%	5.3	4.2%	5.6	13%
6	CCCC/C=C1/CCC(CN(C)C)C1=O (stereo not drawn)	-3.9%	4%	.	.	-6.8%	0.0	-9%
7	COc1ccc2c(C)cc(SC3CCOC3=O)nc2c1 (stereo not drawn)	.	6%	-5%	-1.1	-0.1%	-5.7	5%[15.4 µM]
8	CCOC(=O)/C(=C\Nc1ccccc1C(F)(F)F)Sc1ncc(C(F)(F)F)cc1Cl	-5.2%	-4%	4%	-0.3	8.0%	-1.0	-26%
9	COCCn1c(SCc2cc(C(C)=O)ccc2OC)nc2cc(Cl)ccc2c1=O	1.5%	-19%	2%	3.1	2.7%	1.4	9%[15.4 µM]
10	CS(=O)(=O)c1ccc2nc(NC(=O)C3=NN(c4ccccc4)C(=O)CC3)sc2c1	-3.4%	-19%	6%	2.0	-1.2%	9.0	-41%[inhibitor]
11	Cc1cc(O)c(C(=O)/C=C/c2ccccc2)c(=O)o1	-2.6%	-31%	2%	22	-0.6%	-1.2	17%[15.4 µM]
12	CC(=O)N1CCc2cc(S(=O)(=O)N3CCc4ccccc4C3)ccc21	0.4%	-6%	1%	-1.6	9.9%	-1.3	9%
13	COc1ccc(NC(=O)Nc2cccc3c2O[C@H](CN(C)C(=O)NC(C)C)[C@@H](C)CN([C@H](C)CO)C3=O)cc1	-1.7%	-6%	.	.	0.2%	-8.5	.
14	Cc1oc(-c2ccc(Cl)cc2)nc1CS(=O)CC(=O)NCCN1CCCCCC1 (stereo not drawn)	-13%	2%	0%	.	2.4%	-3.6	-47%[inhibitor]
15	O=C(NC1CCN(S(=O)(=O)c2ccccc2)CC1)c1ccccc1	0.6%	10%	0%	-1.9	8.1%	-3.3	-22%
16	CSCCNC(=O)C1(C)CCN1C(=O)C/C=C/c1ccccc1 (stereo not drawn)	-3.0%	.	.	.	0.1%	-2.5	.
17	C/C(N)=C(/C#N)C(=O)COC(=O)C1Cc2ccccc2CN1S(C)(=O)=O (stereo not drawn)	-0.2%	6%&-5%	5%	4.0	0.3%&-2.7%	2.7&-3.0	8%&9%
18	O=C(O)CNS(=O)(=O)c1cc(Cl)c(Cl)cc1Cl	0.6%	8%	-2%	0.9	-0.6%	-1.4	-27%
19	COC(Cn1c(-c2cccc(S(=O)(=O)N(C)C)c2)n[nH]c1=S)OC	0.8%	-42%	-11%	2.4	-0.7%	-3.8	-2%[15.4 µM]
20	O=C(CO/N=C/c1ccccc1OC(F)F)NCc1ccco1	0.2%	3%	8%	-3.3	0.0%	-3.7	28%

# Part of the list above, with each value named.
[13] COc1ccc(NC(=O)Nc2cccc3c2O[C@H](CN(C)C(=O)NC(C)C)[C@@H](C)CN([C@H](C)CO)C3=O)cc1
  ClpP mod: -1.7%	gsp antagonist: -6%	Sfp inh: .	Menin MLL FP FL: .	PINK1 modulator: 0.2%	D2 agonist: -8.5	gsp ag: .
[14] Cc1oc(-c2ccc(Cl)cc2)nc1CS(=O)CC(=O)NCCN1CCCCCC1 (stereo not drawn)
  ClpP mod: -13%	gsp antagonist: 2%	Sfp inh: 0%	Menin MLL FP FL: .	PINK1 modulator: 2.4%	D2 agonist: -3.6	gsp ag: -47%[inhibitor]

# More records follow:
No.	SMILES	ClpP mod	gsp antagonist	Sfp inh	Menin MLL FP FL	PINK1 modulator	D2 agonist	gsp ag
21	CCOC(=O)c1c(NC(=O)N/N=C/c2ccccc2OCC)sc(C(C)=O)c1C	-2.8%	9%	3%	1.4	1.7%	-1.7	-23%
22	O=C(NN1C(=O)C2CC=C(Cl)CC2C1=O)c1ccncc1 (stereo not drawn)	1.4%	2%	9%	-2.0	0.6%	1.0	11%
23	Cc1cc(NC(=O)c2cc(CC(C)C)on2)no1	0.7%	-2%	13%	-3.2	-0.1%	0.4	-29%
24	O=c1c(F)cn(C2CCCO2)c(=O)n1Cc1ccc(Cl)cc1 (stereo not drawn)	0.3%	2%	14%	-1.4	-0.4%	1.8	-2%
25	Cc1cccc(C)c1NC(=O)CSc1nnc(-c2ccncc2)n1Cc1ccco1	-1.7%	-2%	-8%	4.6	.	-0.5	-1%
26	COc1cn(-c2ccccc2)nc1C(=O)Nc1ccc(C)cc1	.	-6%	-27%	28	0.3%	-3.1	3%[15.4 µM]
27	O=C(O)c1ccc(Nc2nc(-c3ccc([N+](=O)[O-])cc3)nc3ccccc23)cc1	-3.3%	-32%	50µM*	-8.8	1.2%	?	5%
28	COC(=O)c1c(NC(=O)C2CCCCC2C(=O)O)sc2c1CCCCC2 (stereo not drawn)	.	-27%	1%	-1.5	0.7%	-4.4	26%[15.4 µM]
29	CC1CCCC(NC(=O)CNC(=S)N(Cc2ccccc2)Cc2cccs2)C1C (stereo not drawn)	.	-13%	9%	1.4	8.5%	3.6	-3%[15.4 µM]
30	Cc1ccc(S(=O)(=O)N2C[C@H]3n4c(=O)ccc(=O)n4C[C@H](OC(=O)NC4CC4)[C@@]3(O)C2)cc1	0.9%	.	.	.	0.4%	-8.3	-20%
31	O=C1C=C(NCCN2CCOCC2)CC(c2ccccc2)C1 (stereo not drawn)	0.5%	-11%	20%	1.0	.	-1.7	4%
32	CCOc1ccc(NC(=S)C(C#N)=C2N(C)c3ccccc3N2C)cc1	-1.3%	10%	-16%	0.0	1.5%	5.3	-2%
33	CCOC(=O)C1CCCN(Cc2cn(C)nc2-c2ccc3c(c2)OCCO3)C1 (stereo not drawn)	-1.6%	9%	14%	0.3	-0.7%	-2.6	-117%[inhibitor]
34	CC(C)N=C(NC#N)SCC(=O)NC(C)(C)C	?	10%	5%	4.0	0.8%	-3.6	4%

# 14 successive compounds already listed:
No.	SMILES	ClpP mod	gsp antagonist	Sfp inh	Menin MLL FP FL	PINK1 modulator	D2 agonist	gsp ag
19	COC(Cn1c(-c2cccc(S(=O)(=O)N(C)C)c2)n[nH]c1=S)OC	0.8%	-42%	-11%	2.4	-0.7%	-3.8	-2%[15.4 µM]
20	O=C(CO/N=C/c1ccccc1OC(F)F)NCc1ccco1	0.2%	3%	8%	-3.3	0.0%	-3.7	28%
21	CCOC(=O)c1c(NC(=O)N/N=C/c2ccccc2OCC)sc(C(C)=O)c1C	-2.8%	9%	3%	1.4	1.7%	-1.7	-23%
22	O=C(NN1C(=O)C2CC=C(Cl)CC2C1=O)c1ccncc1 (stereo not drawn)	1.4%	2%	9%	-2.0	0.6%	1.0	11%
23	Cc1cc(NC(=O)c2cc(CC(C)C)on2)no1	0.7%	-2%	13%	-3.2	-0.1%	0.4	-29%
24	O=c1c(F)cn(C2CCCO2)c(=O)n1Cc1ccc(Cl)cc1 (stereo not drawn)	0.3%	2%	14%	-1.4	-0.4%	1.8	-2%
25	Cc1cccc(C)c1NC(=O)CSc1nnc(-c2ccncc2)n1Cc1ccco1	-1.7%	-2%	-8%	4.6	.	-0.5	-1%
26	COc1cn(-c2ccccc2)nc1C(=O)Nc1ccc(C)cc1	.	-6%	-27%	28	0.3%	-3.1	3%[15.4 µM]
27	O=C(O)c1ccc(Nc2nc(-c3ccc([N+](=O)[O-])cc3)nc3ccccc23)cc1	-3.3%	-32%	50µM*	-8.8	1.2%	?	5%
28	COC(=O)c1c(NC(=O)C2CCCCC2C(=O)O)sc2c1CCCCC2 (stereo not drawn)	.	-27%	1%	-1.5	0.7%	-4.4	26%[15.4 µM]
29	CC1CCCC(NC(=O)CNC(=S)N(Cc2ccccc2)Cc2cccs2)C1C (stereo not drawn)	.	-13%	9%	1.4	8.5%	3.6	-3%[15.4 µM]
30	Cc1ccc(S(=O)(=O)N2C[C@H]3n4c(=O)ccc(=O)n4C[C@H](OC(=O)NC4CC4)[C@@]3(O)C2)cc1	0.9%	.	.	.	0.4%	-8.3	-20%
31	O=C1C=C(NCCN2CCOCC2)CC(c2ccccc2)C1 (stereo not drawn)	0.5%	-11%	20%	1.0	.	-1.7	4%
32	CCOc1ccc(NC(=S)C(C#N)=C2N(C)c3ccccc3N2C)cc1	-1.3%	10%	-16%	0.0	1.5%	5.3	-2%

# Rows were taken by chance. About 5.1% of those tested had a hit in this group.
